Rce1 inhib: yeast Rce1p protease inhibitors, primary screen, biochemical, fluorescence, cell-free homogeneous; yeast membranes, quenched prenylated peptide cleavage fluorescence; calls only; actives 0.27% (n = 290,000); AID 2563, 2010;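 active means fall in fluorescence gain of 50% or more versus controls, with final raw signal at or below 3038400; inconclusive means same 50% fall but final raw signal above 3038400; inactive means fall in fluorescence gain under 50%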;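 further: plate controls were neutral control wells for no effect and wells lacking membranes for full effect; tested at 10 µM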
Target sequence (Q03530 whole entry, looked up): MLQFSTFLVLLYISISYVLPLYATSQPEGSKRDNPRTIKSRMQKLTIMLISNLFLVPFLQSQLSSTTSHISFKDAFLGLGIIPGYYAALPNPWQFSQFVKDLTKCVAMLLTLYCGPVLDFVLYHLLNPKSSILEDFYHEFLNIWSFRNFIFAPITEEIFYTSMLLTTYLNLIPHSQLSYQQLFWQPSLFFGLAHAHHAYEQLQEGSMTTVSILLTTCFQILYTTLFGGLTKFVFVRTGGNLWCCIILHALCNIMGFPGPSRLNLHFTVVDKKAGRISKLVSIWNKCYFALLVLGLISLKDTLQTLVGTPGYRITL
PABP FP inh: PABP poly(A) RNA binding inhibitors, primary screen, biochemical, fluorescence polarization, uHTS; inhibition, % at 35 µM; actives 1% (n = 290,000); AID 2014, 2009;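 active means 50% or more with normal probe brightness, or confirmed in later tests; inconclusive means above 50% with abnormal brightness, or retests that disagree; inactive means below 50% or failed in later tests; about a fifth of its hits are not listed in these tables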;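 further: calls also rest on retests at 20 µM and on dose response follow-up; controls were probe without protein and protein plus probe with vehicle; some compounds called inactive have numbers as strong as hits; many hits fall short of the cut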
Env fusion inh: inhibitors of HIV-1 Env-driven cell-cell fusion, primary screen, HeLa-JRFL effector, CEM21 target cells, luciferase; inhibition, % at 12.3 µM; actives 1.1% (n = 360,000);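 active means mean replicate inhibition score of at least 50 and every replicate individually at or above 50; inconclusive means only one of the two criteria met; inactive means mean below 50 and not all replicates reaching 50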;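 further: 0% = plate neutral controls and 100% = maraviroc near 300 nM; one replicate is shown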
MT1-MMP act inh: blockers of MT1-MMP proenzyme processing, primary screen, HT1080 RFP-PRO-GFP cells, GFP/RFP fluorescence; actives 0.061% (n = 360,000); AID 651647, 2012; GFP/RFP ratio change, % at 20 µM; Matrix metalloproteinase-14 (Homo sapiens), P50281; GFP/RFP ratio fluorescence, overnight; percent of plate control window, DMSO zero;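 active means GFP/RFP ratio change of at least 30% with cell ATP level not reduced by more than half and red fluorescence within 50% of control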; further: strong numbers were not always called active
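Assay system: HT1080 cells carrying an RFP-PRO-GFP reporter | Dosing: Single dose of 20 µM compound, 1% DMSO final | Incubation: Cells overnight before dosing, compound overnight, 37 °C, 5% CO2 | Evaluation: GFP/RFP fluorescence ratio | Control set: DMSO and RFP-L50D-GFP cell wells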
UUG fidelity: modulators of yeast start codon fidelity, primary screen, whole organism, S. cerevisiae, single point, plate reader; AID 602363, 2012; S. cerevisiae UUG-firefly luciferase reporter, luminescence/redox ratio; activity score, % at 18.7 µM; actives 0.13% (n = 350,000);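 active means replicate mean at a twofold rise or more, about +100% in these data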;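 further: firefly luciferase made from a UUG start codon reports start codon fidelity; reporter light over untreated wells divided by growth signal over untreated wells; some hits fall short of that in this replicate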
eIF4H FP inh: human eIF4H binding inhibitors, primary screen, translation initiation inhibitor project, biochemical, uHTS, fluorescence polarization; actives 0.94% (n = 290,000); inhibition, % at 35 µM; Eukaryotic translation initiation factor 4H (Homo sapiens), Q15056; eIF4H fluorescence polarization binding assay;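 active means 50% or more with normal probe brightness, or confirmed in later tests; inconclusive means above 50% with abnormal brightness, or retests that disagree; inactive means below 50% or failed in later tests; about a fifth of its hits are not listed in these tables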;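 further: calls also rest on retests at 20 µM and on dose response follow-up; 0% = protein and probe with vehicle and 100% = probe without protein; strong numbers were not always called active; many hits fall short of the cut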
CSC inhib: cancer stem cell viability inhibitors, primary screen, luminescence | cancer stem cell-like cells viability | inhibition, % at 7.5 µM | actives 1.1% (n = 300,000);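 active means mean at 75% or more and at least half the replicates too; inconclusive means mean and replicates disagree; tested in HMLE shEcad cells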;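 further: 0% = median of negative and 100% = median of positive control wells; the first replicate is given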
eIF4H FP inh retest: also measured in eIF4H FP inh; calls as there; inhibition, %; compound at 20 µM; confirmation average;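 mean of two retest wells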
PABP FP inh retest: also measured in PABP FP inh; calls as there; inhibition, %; compound at 20 µM; confirmation repeats;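 mean of two retest wells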
MT1-MMP act inh RFP: further read-out of MT1-MMP act inh, marked with its call; RFP signal change, %; measured here: RFP expression control read;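 0 = vehicle wells; hits needed this value within 50% of zero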
* marks the source's active call; other numbers are inactive results; i = inactive; ? = inconclusive; nt = no result given.

SMILES	Rce1 inhib	PABP FP inh	Env fusion inh	MT1-MMP act inh	MT1-MMP act inh RFP	UUG fidelity	eIF4H FP inh	CSC inhib	others
CC(C)N1CCN(Cc2ccc3nsnc3c2)CC1CCO (stereo unspecified)	i	11	-24	-1	1	nt	-4	-5
O=C(CN1CCC(NC(=O)C2CC2)CC1)Nc1ccccc1[N+](=O)[O-]	i	4	-7	0	0	-16	4	7
O=C(NCCN1C(=O)S/C(=C\c2ccc(Cl)cc2)C1=O)c1ccc(F)c(S(=O)(=O)N2CCOCC2)c1	i	-2	nt	5	-4	-1	1	nt
COc1ccc(NC(=O)CSc2nc3c(c(=O)n2-c2ccc(C)cc2)SCC3)c(OC)c1	i	-4	nt	-4	1	-1	0	-11
O=c1c2c3c(sc2nc(NCCO)n1Cc1ccco1)CCCCC3	i	4	6	-2	-7	-6	5	?
CC(=O)OC(C#CCN1CCOCC1)c1ccccc1 (stereo unspecified)	i	9	-14	4	0	-14	0	6
NS(=O)(=O)c1ccc(NC(=O)CSc2nnc(-c3cnccn3)n2-c2ccccc2)cc1	i	0	nt	7	9	-8	-4	-7
COc1ccc(N2CC(C(=O)Nc3ccc([N+](=O)[O-])cc3Br)CC2=O)cc1 (stereo unspecified)	nt	8	-3	-5	-3	-12	-9	-10
CCN1CCN(CCNC(=O)CSCc2nc(-c3ccc(OC)c(OC)c3)oc2C)CC1	i	-12	-23	1	-2	nt	10	14
Cc1ccc(/C=N/N=C2/NC(=O)CS2)o1	i	10	-7	-3	0	nt	-4	-7
COc1ccc(CNC(=O)C(C)OC(=O)c2cccn2C)cc1 (stereo unspecified)	i	-4	-32	0	8	-16	0	-4
O=C1CCC([N+](=O)[O-])C(c2cc3c(cc2Br)OCO3)N1 (stereo unspecified)	i	14	1	6	5	nt	-2	-14
CC1CCCC(C)N1CCCNC(=O)Cn1c(=O)c2cccn2c2cccnc21 (stereo unspecified)	i	23	2	-2	0	-17	15	-1
Cc1ccccc1-c1cc(-c2ccccc2O)on1	i	19	-313	-4	2	-1	-3	nt
CCCn1c(=N)n(CC(O)COc2cccc(C)c2)c2ccccc21 (stereo unspecified)	i	-7	5	4	1	-8	-9	13
CCOC(=O)C(C)Oc1c(Br)cc(C2NC(=O)NC(C)=C2C(C)=O)cc1OCC (stereo unspecified)	i	-1	-25	0	-1	-5	0	-10
Cc1ccc(-c2noc(CN(C(=O)c3cccc(Br)c3)C(C)C)n2)cc1	i	3	12	2	2	-27	2	47
CC(C(=O)N=c1sc2ccccc2n1C)N1C(=O)C2CC=CCC2C1=O (stereo unspecified)	i	10	-35	2	2	-15	-4	-7
CC(OC(=O)c1cccc(-n2cnnn2)c1)C(=O)Nc1ccc(F)c(F)c1F (stereo unspecified)	nt	nt	-4	7	1	-5	nt	nt
CC(=O)Nc1c(O)nc(SCc2ccc(Cl)cc2)[nH]c1=O	i	-8	nt	-5	6	-7	2	-2
CCCN(C(=O)c1ccccc1N)c1c(C)n(C)n(-c2ccccc2)c1=O	i	-2	-69	-2	6	5	-6	-4
CC(C)(C)c1ccc(NC(=O)C2=CC=CN3CCS(=O)(=O)N=C23)cc1	nt	nt	nt	7	2	-3	nt	3
CCOc1ccc(C(=O)OCC(=O)N2CC(C)OC(C)C2)cc1OCC (stereo unspecified)	nt	10	4	5	4	-15	-8	-5
CC(/C=C/c1ccco1)=N\NC(=O)CNc1cccc(C)c1	i	2.2*	9	0	4	nt	95*	-2	eIF4H FP inh retest=98*;PABP FP inh retest=70*
CN1CCc2c(sc3c2c(=O)n(-c2ccccc2)c2n[nH]c(=S)n32)C1	i	0	38	0	-1	-22	7	-9
COc1ccc(/C=N/NC(=O)c2cc(-c3ccccc3OC(C)C)nc3ccccc23)cc1CN1CCOCC1	i	4	-20	-3	-5	nt	0	-3
N#C/C(=C\c1ccc(-c2ccc(Br)cc2)o1)C(=O)NCCc1c[nH]c2ccccc12	i	-6	18	7	-2	nt	-14	56
Cc1cc(C)n(CC(=O)Nc2ccccc2)n1	i	-12	-32	0	4	-11	-6	2
COc1ccc(C#Cc2cccc(-c3nc(C(=O)NCCCN4CCOCC4)cc4c3[C@H](CCO)N(S(=O)C(C)(C)C)C4)c2)cc1OC (stereo partly specified)	nt	nt	28	7	9	10	nt	nt
CS(=O)(=O)c1ccc(Cl)c(NC(=O)COC(=O)c2cccc(S(=O)(=O)N3CCCCC3)c2)c1	i	-2	14	2	7	-6	-9	-5
O=C(Cc1ccccc1)N/N=C/c1cc2c(cc1Cl)OCO2	i	6	-2	-5	-8	nt	-2	-13
COc1ccc(NC(=O)c2ccc(OCC3CCCO3)cc2)cc1Cl (stereo unspecified)	nt	nt	-39	-5	-25	-5	nt	nt
O=C(Nc1nc2ccc(F)cc2s1)C1CCN(S(=O)(=O)c2cc([N+](=O)[O-])ccc2Cl)CC1	i	-10	-1	-5	-30	nt	22	12
COc1ccc(-n2nc(C(=O)NCc3ccco3)c3c4ccccc4n(C)c3c2=O)cc1	i	89*	-2	2	1	nt	2.8*	-11	eIF4H FP inh retest=108*;PABP FP inh retest=76*
C=CCn1cc(/C=N/Nc2nc3ccccc3[nH]2)c2ccccc21	i	7	-26	6	-20	nt	14	92*
Cc1nsc(Nc2ccccc2)c1C#N	i	0	9	-4	-2	nt	-6	-6
Cc1c(CCOC(=O)c2ccccc2)sc[n+]1CC(=O)c1ccc(Br)cc1	i	-3	nt	-4	-3	-7	-6	nt
CNC(=O)C1(C)CCN1C(=O)Cc1ccc(C(C)C)cc1 (stereo unspecified)	nt	nt	5	0	0	14	nt	nt
Cc1ccc2c(cnn2C(=O)CCCC(=O)NC(C)c2ccccc2)c1 (stereo unspecified)	i	2	nt	-3	6	1	-11	0
CC(C)=C(NC(=O)c1ccccc1)C(=O)Nc1ccc(C(=O)O)cc1	i	9	2	4	2	nt	-1	-6

No new results follow: twelve of the compounds above.
SMILES	Rce1 inhib	PABP FP inh	Env fusion inh	MT1-MMP act inh	MT1-MMP act inh RFP	UUG fidelity	eIF4H FP inh	CSC inhib	others
COc1ccc(C#Cc2cccc(-c3nc(C(=O)NCCCN4CCOCC4)cc4c3[C@H](CCO)N(S(=O)C(C)(C)C)C4)c2)cc1OC (stereo partly specified)	nt	nt	28	7	9	10	nt	nt
CS(=O)(=O)c1ccc(Cl)c(NC(=O)COC(=O)c2cccc(S(=O)(=O)N3CCCCC3)c2)c1	i	-2	14	2	7	-6	-9	-5
O=C(Cc1ccccc1)N/N=C/c1cc2c(cc1Cl)OCO2	i	6	-2	-5	-8	nt	-2	-13
COc1ccc(NC(=O)c2ccc(OCC3CCCO3)cc2)cc1Cl (stereo unspecified)	nt	nt	-39	-5	-25	-5	nt	nt
O=C(Nc1nc2ccc(F)cc2s1)C1CCN(S(=O)(=O)c2cc([N+](=O)[O-])ccc2Cl)CC1	i	-10	-1	-5	-30	nt	22	12
COc1ccc(-n2nc(C(=O)NCc3ccco3)c3c4ccccc4n(C)c3c2=O)cc1	i	89*	-2	2	1	nt	2.8*	-11	eIF4H FP inh retest=108*;PABP FP inh retest=76*
C=CCn1cc(/C=N/Nc2nc3ccccc3[nH]2)c2ccccc21	i	7	-26	6	-20	nt	14	92*
Cc1nsc(Nc2ccccc2)c1C#N	i	0	9	-4	-2	nt	-6	-6
Cc1c(CCOC(=O)c2ccccc2)sc[n+]1CC(=O)c1ccc(Br)cc1	i	-3	nt	-4	-3	-7	-6	nt
CNC(=O)C1(C)CCN1C(=O)Cc1ccc(C(C)C)cc1 (stereo unspecified)	nt	nt	5	0	0	14	nt	nt
Cc1ccc2c(cnn2C(=O)CCCC(=O)NC(C)c2ccccc2)c1 (stereo unspecified)	i	2	nt	-3	6	1	-11	0
CC(C)=C(NC(=O)c1ccccc1)C(=O)Nc1ccc(C(=O)O)cc1	i	9	2	4	2	nt	-1	-6

(cont.)
SMILES	Rce1 inhib	PABP FP inh	Env fusion inh	MT1-MMP act inh	MT1-MMP act inh RFP	UUG fidelity	eIF4H FP inh	CSC inhib	others
Nc1nnc(SCC(=O)Nc2ccc(S(=O)(=O)N3CCOCC3)cc2)s1	i	6	nt	-3	-3	-12	4	-11
O=C(Nc1ccc(Cc2ccncc2)cc1)c1cc([N+](=O)[O-])ccc1N1CCOCC1	i	-4	-18	-4	-4	nt	-8	28
CN(Cc1ccco1)C(=O)[C@H](Cc1ccccc1)NC(=O)CC[C@H]1O[C@@H](n2ccc(=O)[nH]c2=O)[C@H](O)[C@@H]1O	nt	nt	19	0	3	-13	nt	nt
CC(=O)N1N=C(c2ccc3nccnc3c2)CC1c1ccccc1 (stereo unspecified)	i	9	-55	9	-1	13	2	-4
CC(C)Cc1ccc(C2=CSC3=NCCN23)cc1	i	nt	11	-5	-2	-8	nt	68
Cc1ccc(-c2nc3c(c(=O)[nH]c(=O)n3Cc3ccccc3)n2Cc2ccccc2)o1	i	-8	38	-6	2	nt	0	nt
COc1ccc(CNC(=O)CC2Sc3ccccc3NC2=O)cc1 (stereo unspecified)	i	18	21	3	-1	2	-4	-2
O=C(NCCOc1ccc(Cl)cc1)C(=O)NCC1CCCO1 (stereo unspecified)	i	-5	3	1	3	nt	-10	-7
COCc1ccc(C(=O)N2CCCCC2C(=O)Nc2ccc(-n3nc(C)cc3C)cc2)o1 (stereo unspecified)	i	-1	2	0	-2	-1	-4	-3
C/C(=N\NC(=O)c1ccncc1)c1ccc(N2CCOCC2)cc1	nt	nt	nt	5	1	-15	nt	0
CC1CN(C(=O)c2ccccc2Nc2ccc(SC(F)F)cc2)CC(C)O1 (stereo unspecified)	i	-6	-13	1	9	-11	-5	4
COC(=O)C1CCN(CC(=O)Nc2sc3c(c2C#N)CCC3)CC1	i	9	nt	-1	0	-13	13	-11
O=C(O)c1ccc(Cl)c(S(=O)(=O)N2CCCCCC2)c1	i	1	nt	7	1	10	-10	-9
CCN(CCn1cccn1)C(=O)c1cc(COc2cccc3cccnc23)on1	i	-8	3	0	0	8	-8	-1
COc1ccc(Cl)cc1C(=O)OCC(=O)c1c(N)n(C)c(=O)n(C)c1=O	nt	nt	-7	-2	4	-13	nt	nt
C=CCN1C(=O)[C@@H]2Cc3c([nH]c4ccccc34)C(c3cc(OC)c(OC)c(OC)c3)N2C1=S (stereo partly specified)	i	58	-16	-73	-6	-5	?	28	PABP FP inh retest=20
O=C(Cn1cnc2c(nnn2Cc2ccc(F)cc2)c1=O)N1CCCc2ccccc21	i	-6	nt	3	1	-15	-5	17
COc1ccc(-c2noc(CCCC(=O)Nc3ccc(C(N)=O)cc3)n2)cc1	i	-4	nt	3	-7	-22	-5	-3
Cc1cccc(C)c1NC(=O)Cn1cnc2c(=O)n(C)c(=O)n(C)c21	i	1	-40	-1	0	-12	-17	-9

Compound activity from PubChem BioAssay.

Compounds as they come, and some 2.9% of all compounds hit somewhere here.
